Source: PubChem BioAssay (several laboratories)
UCH37 inh: inhibitors of human deubiquitinating enzyme UCH37. Q9Y5K5. purified proteasome/UCH37, Ub-AMC cleavage fluorescence. inhibition, % (concentration not given with the values). 330,000 compounds, 0.33% hits. AID 588478;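 active = mean of two replicates above 20%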;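 note: 0% = compound-free wells with enzyme and 100% = wells lacking proteasome; stock transfer was 100 nL into about 20 µL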
Target sequence (Q9Y5K5 whole entry, looked up): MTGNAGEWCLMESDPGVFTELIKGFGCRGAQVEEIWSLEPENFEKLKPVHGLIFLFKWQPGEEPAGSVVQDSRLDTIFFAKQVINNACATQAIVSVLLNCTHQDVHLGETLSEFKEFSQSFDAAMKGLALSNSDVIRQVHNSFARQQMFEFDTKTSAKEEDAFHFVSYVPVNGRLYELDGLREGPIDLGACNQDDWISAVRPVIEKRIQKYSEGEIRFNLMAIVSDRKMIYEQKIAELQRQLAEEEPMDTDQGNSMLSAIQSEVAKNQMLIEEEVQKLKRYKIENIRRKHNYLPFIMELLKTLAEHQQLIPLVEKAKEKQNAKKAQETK
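Assay system: Proteasome-bound UCH37. Buffer or medium: pH 7.4 Tris-HCl (50 mM) with ovalbumin, ATP-MgCl2, DTT. Incubation: 30 min preincubation with enzyme, 25 min cleavage at room temperature. Measured by: fluorescence, ex 355 nm, em 460 nm. Read-out basis: percent inhibition. Control set: wells without proteasome as full block, compound-free enzyme plus substrate as uninhibited.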
B2AR ag: agonists of human beta-2 adrenergic receptor inducing internalization | P07550 | Am2.2-beta2AR cells, FAP receptor internalization, flow cytometry; reference of the scale not given here | response, % (test concentration not listed) | 340,000 compounds, 0.43% hits | AID 504454;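 active = response above a set limit, near 3 SD of response in nonfluorescent compounds, cut at about 42% in these data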;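 note: stock transfer was 100 nL into about 11 µL; a reference agonist was the positive control; negative values mostly stem from fluorescent compounds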
Target sequence (P07550 whole entry, looked up): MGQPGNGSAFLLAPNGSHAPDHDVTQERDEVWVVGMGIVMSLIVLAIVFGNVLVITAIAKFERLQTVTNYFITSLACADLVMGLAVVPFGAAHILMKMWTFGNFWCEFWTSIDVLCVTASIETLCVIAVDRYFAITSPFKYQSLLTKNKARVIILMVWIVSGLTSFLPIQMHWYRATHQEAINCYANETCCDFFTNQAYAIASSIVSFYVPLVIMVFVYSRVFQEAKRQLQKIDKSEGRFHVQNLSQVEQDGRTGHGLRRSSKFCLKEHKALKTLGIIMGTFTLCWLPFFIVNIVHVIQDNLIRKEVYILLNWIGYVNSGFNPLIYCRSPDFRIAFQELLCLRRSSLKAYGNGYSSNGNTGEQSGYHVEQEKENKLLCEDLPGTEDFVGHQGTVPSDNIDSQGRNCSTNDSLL
FGF22 binding: binders of recombinant human FGF22 by thermal shift. Q9HCT0. SYPRO orange fluorescence; percent of sucrose octasulfate shift, DMSO zero. calls only at 9.99 µM. 340,000 compounds, 1.5% hits. AID 651658;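 active = melting point raised past a set limit in the mean and every replicate; three in four hits are not shown here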
Target sequence (Q9HCT0 whole entry, looked up): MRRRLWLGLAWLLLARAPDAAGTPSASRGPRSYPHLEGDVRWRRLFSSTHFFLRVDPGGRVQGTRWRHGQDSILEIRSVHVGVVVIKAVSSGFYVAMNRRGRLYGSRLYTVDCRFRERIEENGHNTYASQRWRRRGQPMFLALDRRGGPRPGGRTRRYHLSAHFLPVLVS
HNF4A DNA FP: change in binding of human HNF4 alpha to DNA. HNF4a-FITC DNA binding, fluorescence polarization, 1 h. P41235. AID 1224865. 360,000 compounds, 0.3% hits. activity change, % at 10 µM; in the data active = activity change above about 30%, passing the limit was not always enough;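 note: controls were the assay level and a saturating level of protein; the project sought stronger binding though the title names inhibitors; some compounds called inactive have numbers as strong as hits; positive values seem to mean higher polarization but the record does not say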
rRNA inh HTS: inhibits bacterial ribosomal RNA function over humanized ribosomes. E. coli WT GFP vs humanized-ribosome RFP mutants, fluorescence, 24 h; active compounds read low; DMSO median 0, no signal -100. GFP signal change (wild-type ribosome), % (no concentration beside the values). 350,000 compounds, 1.6% hits. AID 720706;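 active = significant combined selectivity score with lowered wild-type GFP, culture density cut under 30%, mutant RFP and density less affected; inactive = any of these conditions unmet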; note: one replicate is shown; some compounds called inactive have numbers as strong as hits
ALR H2O2 inh: human ALR oxidase inhibition via reduced H2O2 | P55789 | purified ALR, DTT oxidation, H2O2 HRP-luminol luminescence | inhibition, % (concentration not given with the values) | 290,000 compounds, 3.8% hits | AID 485317;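 active = mean and each replicate at 75% or more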;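 note: stock transfer was 7.5 nL into about 7.5 µL; 0% = neutral wells and 100% = wells with inactivated enzyme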
Ecoli growth: inhibitors of Escherichia coli growth; OD600, 23 h; active compounds read low; OD600 absorbance (test concentration not listed); 330,000 compounds, 0.21% hits; AID 1053175;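 active = OD600 absorbance below the run mean of sample wells minus 3.6 SD, in any replicate, cut at about 0.56 in these data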;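 note: stock transfer was 300 nL into about 60 µL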
rRNA inh HTS OD600: further read-out of rRNA inh HTS, marked with its call; OD600 change, %; measured here: OD600 growth;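 optical density of the mix in the first replicate; 0 = DMSO median and -100 = no signal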
rRNA inh HTS RFP: recorded beside rRNA inh HTS, whose call it bears; RFP signal change, %; measured here: RFP humanized mutant strains;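 first replicate; 0 = DMSO median and -100 = no signal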
Starred values were filed as active, the others as inactive; i = inactive; . = not tested or not shown; & = joins results of further samples.

SMILES	UCH37 inh	B2AR ag	FGF22 binding	HNF4A DNA FP	rRNA inh HTS	rRNA inh HTS OD600	rRNA inh HTS RFP	ALR H2O2 inh	Ecoli growth
Fc1cccc(NC(=S)NNc2c3ccccc3nc3ccccc23)c1	3.1	21	i	3.1	-5	6	-2.8	.	0.7
COc1ccc(OC(=O)C2CC(=O)N(c3ccc(C)cc3)C2)cc1 (configuration not stated)	3.9	2	i	3.0	4	-2	3.3	15	0.67
COC(=O)C1=C(C)Nc2ncnn2C1c1ccc(OCc2ccccc2)cc1 (configuration not stated)	-3.1	-3	.	0.9	.	.	.	-4	0.73
Cc1cccc(NCc2ccc(O)c3ncccc23)c1C	-0.4	14	.	3.5	16	11	-3.3	-18	0.73
CCO[C@@H]1OC(C(=O)NCc2ccccc2)=C[C@H](c2csc3ccccc23)[C@H]1CCCO	0.0	18	i	-1.7	-23	-33	-2.9	-1	.
Cc1csc2nc(COC(=O)CNC(=O)c3ccc(Cl)cc3)cc(=O)n12	-1.3	6	i	-1.1	.	.	.	-1	0.65
CC(NC(=O)/C(C#N)=C1\N=C(NC(=O)c2cccs2)c2ccccc21)c1ccccc1 (configuration not stated)	4.6	-154	.	55*	.	.	.	16	0.71
COc1ccc(-c2nc(CCNC(=O)c3ccco3)cs2)cc1OC	-14	-5	i	6.8	-14	-35	2.4	8	0.77
CC(=NCCCn1ccnc1)C1=C(O)c2ccccc2C1=O	6.2	5	.	-6.8	.	.	.	-3	0.67
Cc1ccccc1OCc1nnc(SCCN2CCCC2)n1-c1ccccc1	-1.0	7	i	-0.7	-14	-16	8.5	0	0.64
COC(=O)CSc1nnc(COc2ccc([N+](=O)[O-])cc2)n1C	3.0	4	.	-1.0	12	8	0.8	-17	0.65
O=C(NC1(C(F)(F)F)NC(=O)N(C2CCCCC2)C1=O)c1ccco1 (configuration not stated)	4.1	0	i	-1.6	12	-11	3.9	2	0.73
C/C(=N\Nc1nc(N)cc(Cl)n1)c1ccc(F)cc1	.	-10	i	-0.8	-1	7	2.1	3	.
COc1cccc(-c2cc(C(F)(F)F)c(C#N)c(=O)[nH]2)c1	i	2	i	-6.4	-45	-73	-11	12	0.68
O=[N+]([O-])c1ccc2nc(-c3ccncc3)[nH]c2c1	8.7	6	i	-0.8	-6	-3	1.0	-8	0.64
Cc1ccc(C2CC(c3cccs3)=NN2C(=O)CSC2=NN3CCCC(=O)N=C3S2)cc1 (configuration not stated)	-0.1	-14	i	3.1	-4	-10	1.1	.	0.78
CCOc1ccc(Oc2ccc(C(F)(F)F)cc2N)cc1	6.0	4	.	0.4	.	.	.	-22	0.68
O=c1nc2n(c3ncccc13)CCC2	0.6	9	i	3.9	12	4	-1.1	.	0.65
CCN(CC)CCCN(C(=O)c1ccco1)c1nc(-c2ccc(Cl)cc2)cs1	6.4	10	i	-2.0	-38	-43	-8.5	-20	0.64
CCCN(CC(=O)Nc1ccccc1C)C(=O)CC(NC(=O)c1ccccc1)c1ccccc1 (configuration not stated)	3.1	-1	i	-1.6	-2	-6	-3.0	-3	0.7
Cc1cc(C)c2[nH]c3nc(SCC(=O)O)nnc3c2c1	11	9	i	-3.9	-8	5	15	-7	0.65
COc1ccc(NC(=S)NNc2ccc([N+](=O)[O-])cc2S(=O)(=O)Nc2ccc(C)cc2C)cc1	5.2	15	i	16	2	4	-2.3	-2	0.68
COc1ccc(CCC(=O)N2CCN(S(=O)(=O)c3cccc(Cl)c3)CC2)cc1	0.8	-2	i	5.3	-12	-13	4.6	-4	0.64
Cc1onc(-c2ccccc2Cl)c1C(=O)NCC1CCCO1 (configuration not stated)	1.3	0	.	-1.9	.	.	.	-8	0.68
O=C(NCC(=O)N1CCN(S(=O)(=O)c2ccc3c(c2)OCCO3)CC1)c1ccccc1Cl	-0.1	-3	i	0.2	3	9	-1.3	1	0.68
CCOC(=O)c1sc(NC(=O)CCN2CCC(C)CC2)c(C(=O)OCC)c1C	.	9	i	3.1	4	-5	0.4	19	.
O=C(NC(=S)Nc1ccc(Cl)c(C(=O)O)c1)c1ccco1	0.0	9	i	3.0	6	3	-1.6	19	0.71
Nc1ncnc2c1ncn2[C@@H]1O[C@H](CNS(=O)(=O)c2ccc3c(c2)CCN(C(=O)C(F)(F)F)C3)[C@@H](O)[C@H]1O	0.6	-9	i	3.2	9	5	-2.8	.	0.71
COc1ccc(-n2c(SCC(=O)N3CCCCC3)nc(O)cc2=O)cc1	1.4	-3	.	2.0	.	.	.	15	0.74
O=C(c1ccc(Cl)c([N+](=O)[O-])c1)N1CCN(c2ccccc2)CC1	2.7	0	i	4.2	2	-3	-4.6	30	0.71
COc1cc(OC)cc(-c2nc(-c3cc4cc(C)ccc4nc3OC)no2)c1	-6.6	-1	.	3.4	7	3	-0.7	.	0.69
CCOc1ccc(N2CC(C(=O)NC3CCCCCC3)CC2=O)cc1 (configuration not stated)	-0.3	-6	i	1.9	2	8	-1.2	3	0.61
O=C(NC1C(=O)NNC1c1ccccc1)c1ccccc1 (configuration not stated)	3.1	4	.	4.3	.	.	.	21	0.74
Cc1cccc(Nc2nc(N)c([N+](=O)[O-])c(N3CC(C)OC(C)C3)n2)c1 (configuration not stated)	4.4	24	i	3.6	1	0	0.9	-2	0.64
CCCNC(=O)CN1CCN(c2cc3ccccc3c(Cl)n2)CC1	7.7	-1	i	-4.9	-2	-4	0.1	-1	0.68
Cc1nc(-c2cnn(-c3ccccc3)c2)c2cc(C)oc2n1	-64	-24	.	-4.9	.	.	.	6	0.82
O=C(CNC(=O)c1ccco1)N/N=C/c1c[nH]c2ccccc12	.	3	i	-4.2	4	-6	-2.0	-11	.
COc1cc(C)c(Cl)cc1S(=O)(=O)NCC1CCCO1 (configuration not stated)	-0.6	-3	.	-5.9	.	.	.	-7	0.8
Cc1cc2cc(CNC(=O)CC(C)C)ccc2n1C	3.2	8	.	-1.7	.	.	.	-18	0.7
Cc1ccc(C)c(CN2C(=O)c3ccccc3S(=O)c3ccc(C(=O)N4CCN(c5ccccn5)CC4)cc32)c1 (configuration not stated)	.	-1	i	-0.7	0	1	2.0	-40	.

Among those listed so far, 2 contain a cyano group.
SMILES	UCH37 inh	B2AR ag	FGF22 binding	HNF4A DNA FP	rRNA inh HTS	rRNA inh HTS OD600	rRNA inh HTS RFP	ALR H2O2 inh	Ecoli growth
CC(NC(=O)/C(C#N)=C1\N=C(NC(=O)c2cccs2)c2ccccc21)c1ccccc1 (configuration not stated)	4.6	-154	.	55*	.	.	.	16	0.71
COc1cccc(-c2cc(C(F)(F)F)c(C#N)c(=O)[nH]2)c1	i	2	i	-6.4	-45	-73	-11	12	0.68

(cont.)
SMILES	UCH37 inh	B2AR ag	FGF22 binding	HNF4A DNA FP	rRNA inh HTS	rRNA inh HTS OD600	rRNA inh HTS RFP	ALR H2O2 inh	Ecoli growth
COc1ccc2c(c1)c(=O)cc(-c1ccccc1)n2C	-2.8	5	.	0.7	.	.	.	-1	0.67
O=C(NC(=S)N1CCN(c2ccccc2)CC1)c1ccco1	3.7	10	i	5.2	2	2	1.2	98*	0.7
CCOP(=O)(OCC)C(Nc1ccccc1)c1ccc2c(c1)OCO2 (configuration not stated)	-2.7	3	i	-0.1	7	3	-1.6	40	0.67
CC1CCCCC1NC(=O)COC(=O)c1ccc2c(=O)n3c(nc2c1)CCC3 (configuration not stated)	-5.5	-13	i	4.6	3	10	1.0	.	0.68
O=C(NCCc1ccc(Cl)cc1)c1ncn[nH]1	5.8	-7	.	0.5	.	.	.	-4	0.72
Cc1cc(C)c(NC(=O)C2C3/C=C\CCCCC32)c(C)c1 (configuration not stated)	0.6	6	.	1.9	.	.	.	0	0.74
O=C(O)c1nn(CC(=O)N2CCN(c3ncc(C(F)(F)F)cc3Cl)CC2)c(=O)c2ccccc12	0.1	3	i	0.4	5	7	-4.3	-8	0.66
O=C(NCc1ccco1)c1cccc(NS(=O)(=O)c2cccc(F)c2)c1	0.3	5	.	4.2	.	.	.	1	.
COc1ccc(C#Cc2c(-c3ccccc3)n(-c3ccccc3)c3ccc(CO)cc23)cc1	-120	5	i	1.7	12	11	2.9	-1	0.77
COc1ccc(C2C(C(=O)Nc3ccccc3)=C(C)Nc3nc(CCCO)nn32)cc1 (configuration not stated)	-0.2	1	.	0.0	.	.	.	3	0.73

Results in rRNA inh HTS RFP and UCH37 inh, for some of the entries so far:
molecule,rRNA inh HTS RFP,UCH37 inh
COc1cc(OC)cc(-c2nc(-c3cc4cc(C)ccc4nc3OC)no2)c1,-0.7,-6.6
CCOc1ccc(N2CC(C(=O)NC3CCCCCC3)CC2=O)cc1 (configuration not stated),-1.2,-0.3

Later entries:
SMILES	UCH37 inh	B2AR ag	FGF22 binding	HNF4A DNA FP	rRNA inh HTS	rRNA inh HTS OD600	rRNA inh HTS RFP	ALR H2O2 inh	Ecoli growth
COc1ccccc1CNc1ncccc1[N+](=O)[O-]	3.2	-8	i	-1.0	3	-6	10	-3	0.67
CCOC(=O)Cn1c(=O)c2c(nc(N3CCCCC3)n2Cc2ccccc2)n(C)c1=O	2.0	-3	.	-0.2	.	.	.	-19	0.68
O=C(CN1CCN(c2ccccn2)CC1)Nc1cccc(C(F)(F)F)c1	4.8	4	.	-1.6	.	.	.	-6	0.65
Cc1cc(C(=O)Nc2cccc(O)c2)c(C)o1	6.0	-1	.	60*	.	.	.	18	0.69
CN(C)Cc1cc(C(F)(F)F)ccc1C(O)(c1ccccc1)c1ccccc1	.	24	i	-1.6	-61	-78	-17	.	.
Cc1cccc(S(=O)Cc2ccc(C(=O)N3CCN(C(=O)c4ccco4)CC3)o2)c1 (configuration not stated)	0.8	-10	i	-0.1	4	-8	-6.2	-2	0.67
CCOc1cc(/C=N/NC(=O)c2cc(-c3ccccc3)nc3ccccc23)ccc1O	.	5	i	0.8	5	11	0.7	13	.
CCCCN(C=O)c1c(CC)nc2ccc(C(=O)NCCN(C)C)cn12	.	.	i	2.6	5	14	-1.4	.	.
Cc1ccc(NC2CCCN(C(=O)CCc3ccncc3)C2)cc1C (configuration not stated)	-0.2	-3	i	-1.8	3	-2	-0.9	98*	0.68
COc1cc2c(cc1OC)C(C)N(S(=O)(=O)c1cn(C)c(C)n1)CC2 (configuration not stated)	1.3	-5	i	2.1	8	10	-1.4	1	0.65
COc1ccc(S(=O)(=O)N(C)c2ccc(C(=O)Nc3ccccc3C(=O)N3CCOCC3)cc2)cc1OC	1.8	-5	i	-0.5	-5	4	-0.5	-2	0.65
C[C@@H]1Cn2cnc(C(=O)Nc3cccc(Cl)c3)c2C(=O)N1	.	.	i	-3.0	2	-3	-5.1	.	.
CCc1ccc(OCC(=O)NNC(=O)C2CCN(c3ncnc4sc(C)c(C)c34)CC2)cc1	0.2	-1	.	0.1	-20	-28	-0.7	.	0.63
CCOCC(=O)Nc1nnc(SCCOC)s1	-3.0	-4	.	-2.3	.	.	.	-18	0.67
O=C(NCc1ccccc1Cl)[C@H]1CCCN1C(=O)[C@H]1CCCN1C(=O)c1ccccc1	.	.	i	1.9	0	7	-1.0	.	.
C[C@H](CO)N1C[C@H](C)[C@@H](CN(C)Cc2ccc3cccnc3c2)OCc2cnnn2CCCC1=O	.	.	i	0.9	1&-3	6&-4	-1.2&1.7	.	.
COc1cc2c(cc1NC(=O)CSc1ccc(Cl)cc1)oc1ccccc12	1.9	-4	.	-2.5	.	.	.	-7	0.69
O=C(CN1C(=O)c2ccccc2C1=O)NNC1=NS(=O)(=O)c2ccccc21	4.4	-2	i	0.2	11	9	3.3	4	0.69
COc1ccc(C(=O)NNC(=O)COC(=O)c2sccc2C)cc1	0.4	-4	i	0.2	.	.	.	.	0.64

Only part of the results is shown; the hit share may differ from the screen's.
